Anaer choline gr: growth inhibitors of anaerobic choline-fed gram-negatives, minimal medium, absorbance. 55,000 tested, 0.2% active. calls only. Gram-negative bacterium anaerobic choline minimal medium; stronger effect = lower value; many inactives read as strong as hits in the columns shown;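 active = growth z-score on choline under -2 at 7 or 20 h with little or no fall on glycerol, limits in tiers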;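 note: stock transfer was 300 nL into about 50 µL; the organism is E. coli; final concentration not given here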
Anaer choline gr early: second read-out of Anaer choline gr, no call of its own (marks repeat the call); z-score; measured here: choline growth z-score, timepoint 1;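 score of optical density at 7 h as mean of two plates; lower means less growth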
Starred values were filed as active, the others as inactive; i = inactive; & = joins results of further samples. The list is partial; count on the stated rates, not on these rows.

Each structure is followed by: Anaer choline gr	Anaer choline gr early
#1 Cc1cc(C)c(S(=O)(=O)N2CCCC2c2nnc(C(=O)Nc3cccc(F)c3)s2)c(C)c1 (stereo not given)
  i	-0.01
#2 O=c1c(NC2CCCC2)c(-c2ccc(Cl)cc2)c1=O
  i	0.77
#3 O=C(Nc1ccc(F)c(F)c1)c1nc(N2CCCCC2)c2oc3ccccc3c2n1
  i	0.86
#4 CCOC(=O)CC1(NC(=O)N2CCCC2c2cc(C)on2)CCCCC1 (stereo not given)
  i	-0.24
#5 CN(C)c1ccc(CN(CC2CCCO2)C(=O)c2cc(-c3ccc(Cl)cc3)on2)cc1 (stereo not given)
  i	0.49
#6 O=C(CC1COc2ccccc2N1Cc1ccccc1)Nc1ccc(Cl)cc1 (stereo not given)
  i	0.34
#7 CC1=C(c2ccc(F)cc2)S(=O)(=O)N(CC(=O)Nc2ccc(Br)cc2F)C1=O
  i	1.2
#8 COc1cc(Nc2ncc3c(n2)CCN(S(=O)(=O)c2ccc(F)c(Cl)c2)C3)cc(OC)c1
  i	0.87
#9 Cc1nc(N2CCOCC2)ncc1C(=O)NC1CCCC1
  i	0.23
#10 CCOc1ccc(NC(=O)c2cccc(NC3=NC4CS(=O)(=O)CC4S3)c2)cc1 (stereo not given)
  i	0.44
#11 COc1ccc(-n2nc(C(=O)Nc3cccc(OC)c3)c(=O)n(C)c2=O)cc1
  i	0.35
#12 COc1ccc(CNC(=O)C2CCN(S(=O)(=O)c3ccc4nc5c(c(C(=O)O)c4c3)CCCC5)CC2)cc1
  i	-0.28
#13 COc1cccc(OC)c1OCCNCC1COc2ccccc2O1 (stereo not given)
  i	0.02&-0.29
#14 COc1ccc(-c2c(C)nn3c(NCc4ccc(C)cc4)cc(C)nc23)cc1OC
  i	1.95
#15 Cc1ccccc1-c1noc(CSc2nc3cc4c(cc3c(=O)n2CC2CCCO2)OCO4)n1 (stereo not given)
  i	-0.47
#16 Cc1ccc(S(=O)(=O)NCC(c2cccnc2)N2CCc3ccccc32)cc1 (stereo not given)
  i	0.2
#17 CCN(c1ccccc1)S(=O)(=O)c1ccc2c3c1CC(=O)N3CC(C)S2 (stereo not given)
  i	0.23
#18 COc1ccc(-n2nc(C(=O)Nc3ccccc3OC)c3c4ccccc4n(C)c3c2=O)cc1Cl
  i	0.02
#19 O=C(NC1CC1)c1cccc(-n2cnc3cccnc32)c1
  i	-0.32
#20 COc1ccc(NS(=O)(=O)c2cc(-c3noc(C)n3)cs2)cc1OC
  i	-1.83
#21 Cc1cc2c(cc1S(=O)(=O)N1CCC(C(=O)NCCC3=CCCCC3)CC1)OCC(=O)N2
  i	2.04
#22 C/C=C/C/C=C/CCC(=O)[C@H]1O[C@H]1C(N)=O
  i	-4.2
#23 CC(=O)Nc1cccc(C(=O)Nc2cccc(-c3ccc4cc(C(C)C)ccc4n3)c2)c1
  i	2.25
#24 O=C(NCC1CCCO1)c1ccc2c(c1)CCN2S(=O)(=O)c1ccccc1 (stereo not given)
  i	0.34
#25 O=C(CCn1cnc2cc(S(=O)(=O)N3CCCC3)ccc21)N1CCN(c2ccccc2)CC1
  i	-0.54
#26 OCC(O)C(O)C(O)C(O)CO (stereo not given)
  i	-0.25
#27 COc1ccc(NC(=O)COc2ncnc3onc(-c4ccccc4)c23)cc1
  i	2.51
#28 CCCc1nc2nc[nH]n2c(=O)c1NC(=O)Nc1cc(F)ccc1F
  i	-1.31
#29 CNCCC(Oc1ccccc1C)c1ccccc1 (stereo not given)
  i	0.41&-0.43
#30 O=C(Nc1ccc(Cl)cc1)Nc1c[nH]c(=O)[nH]c1=O
  i	0.96
#31 COc1cc(Nc2c3c(nc4ncnn24)CCC3)cc(OC)c1
  i	0.14
#32 CC1CN(c2ccccc2)c2nc3c(c(=O)n(CC(=O)O)c(=O)n3C)n2C1 (stereo not given)
  i	1.4
#33 Cn1c(CN2CCN(C(=O)Nc3ccccc3)CC2)nc2cc(C(=O)N3CCCC3)ccc21
  i	-0.5
#34 Cc1csc(-n2[nH]c(C)c(CCC(=O)Nc3ccccc3)c2=O)n1
  i	-0.13
#35 CCC(CC)C(=O)N1CCC(C(=O)NCc2csc(-c3cccs3)n2)CC1
  i	-1.08
#36 NS(=O)(=O)c1ccc(CCNc2cnc3cc(S(=O)(=O)N4CCCCC4)ccc3n2)cc1
  i	0.3
#37 COCCNC(=O)c1ccc2c(=O)n(Cc3ccccc3)c(SCC(=O)c3ccc(C)cc3)nc2c1
  i	1.38
#38 O=C1CN(Cc2ccc(F)cc2Cl)S(=O)(=O)c2ccccc2N1Cc1ccccc1F
  i	0.66
#39 COc1ccc(C(=O)N2CCc3c(c(C(=O)NCc4ccccc4)nn3C)C2)cc1
  i	-0.28
#40 CCOC(=O)c1cc(-c2ccc(F)cc2)n(CC(=O)NCc2cccnc2)c1C
  i	1.17
#41 COC(=O)c1c(C)[nH]c(C)c1C(=O)c1ccccc1Cc1ccccc1
  i	-0.54&0.59&-0.31
#42 CCOC(=O)c1cnc(SCC(=O)Nc2cc(Cl)ccc2C)nc1N
  i	0.14
#43 [O-][n+]1cccc(CO)c1
  i	0.04
#44 COc1ccc(-c2noc(-c3nn(-c4ccc(C)c(C)c4)ccc3=O)n2)cc1
  i	-0.02
#45 Cc1ccc(Cc2c(C)[nH]n(-c3nc(C)c(C(=O)N4CCc5ccccc5C4)s3)c2=O)cc1
  i	0.97
#46 C=CCNC(=O)CCc1nnc2n(CCCC)c(=O)c3sccc3n12
  i	0.61
#47 Cc1cccc(CNC(=O)C2CCCN(c3nn4c(=O)cc(C)nc4s3)C2)c1 (stereo not given)
  i	0.28
#48 COc1ccc(-c2noc(CSc3nc4[nH]ncc4c(=O)n3-c3ccc(OC)c(Cl)c3)n2)cc1
  i	-0.64
#49 Cc1cccc(N2CCN(C(=O)CSc3nc4ccccc4nc3N3CCCCC3)CC2)c1C
  i	0.27
#50 COc1cccc(-c2nc3c(s2)CN(S(=O)(=O)c2cccc4nsnc24)CC3)c1
  i	1.35
#51 CC(NC(=O)Cc1csc(NC(=O)c2ccccc2)n1)c1ccccc1 (stereo not given)
  i	-0.78
#52 CCOCCCNCc1ccc(-c2cc(Cl)ccc2Cl)o1
  i	-1.61
#53 O=C(O)C1CSC(c2ccc(OCc3ccccc3Cl)cc2)N1 (stereo not given)
  i	-0.98
#54 COc1ccc(NC(=O)c2c(C)sc3c(C)c(C)[nH]c23)cc1
  i	-0.09
#55 Cc1ccc(C(=O)NCc2ccc3c(c2)OCO3)cc1NC(=O)c1nsc2ccccc12
  i	-2.57
#56 CC1CCCCN1CCCNC(=O)Nc1cn(C)c(=O)c2ccccc12 (stereo not given)
  i	1.33
#57 C=CCNC(=O)c1ccc(Cn2nc(-n3cccc3)c3c(C)cc(C)nc32)cc1
  i	0.06
#58 Cc1ccc(-n2ccnc2SCc2nc(-c3ccc(Cl)cc3)no2)cc1
  i	0.4
#59 Cc1cc(C2CCCN2C(=O)c2cc(-c3ccc(Cl)cc3)on2)no1 (stereo not given)
  i	0.62
#60 CC[C@]12CCCN3CCc4c(n(c5ccccc45)C(=O)C1)[C@@H]32
  i	-0.1

Going on with the list.
Each structure is followed by: Anaer choline gr	Anaer choline gr early
#61 C=CCn1c(=O)c2ccc(C(=O)NC(C)C)cc2n2c(=O)n(CC(=O)NC(C)C)nc12
  i	0.05
#62 O=C(NCC1(N2CCOCC2)CCCCC1)C1COc2ccccc2O1 (stereo not given)
  i	0.05
#63 Cn1nnc2c(N(Cc3ccccc3)Cc3ccccc3)ncnc21
  i	1.15
#64 O=C(c1cc(NS(=O)(=O)c2ccc3c(c2)CCCC3)ccc1N1CCNCC1)N1CCOCC1
  i	-1.98
#65 O=C(NCCc1ccccc1)NCCn1c(C(F)(F)F)nc2cccnc21
  i	-0.16
#66 COc1cc(-c2cc(C)no2)ccc1S(=O)(=O)Nc1ccc(Cl)cc1C
  i	1.65
#67 Cc1c(Cl)cccc1NC(=O)Nc1ccccc1SCc1cc(=O)n2c(ncn2CC(C)C)n1
  i	0.08
#68 O=C1CCCN1c1ccc(Cn2nc3c(S(=O)(=O)N4CCCC4)cccn3c2=O)cc1
  i	0.34
#69 COc1ccccc1OCCSc1nnc(-c2ccc3c(c2)OCCCO3)n1C
  i	-0.47
#70 CCC(C)(C)NS(=O)(=O)c1cc(-c2nc(C(C)(C)C)cs2)cs1
  i	0.13
#71 CCn1c(C)c(C)c2cc(C(=O)NCC3CCCO3)ccc21 (stereo not given)
  i	-0.47
#72 Cn1c(=O)c2[nH]c(C3CCCC3)nc2n(C)c1=O
  i	-0.8
#73 O=C(Nc1ccc(Br)cc1F)c1cc(-c2cccnc2)on1
  i	1.22
#74 CCN(CC)c1ccc(CNC(=O)c2ccc(Nc3ncc(-c4cccc(F)c4)cn3)cc2)cc1
  i	0.82
#75 CN(C)c1cccc(-c2nn3c(CSc4ccccc4)nnc3s2)c1
  i	0.15
#76 CN(CCCNC(=O)C1CCN(c2nn3c(=O)c4c(nc3s2)CCCC4)CC1)C1CCCCC1
  i	-0.22
#77 CC(C)CN1CCC(N2CCC(C(C)O)CC2)CC1 (stereo not given)
  i	0.56
#78 CC(C)N1C(=O)CCC1C(=O)NCc1ccc2c(c1)OCO2 (stereo not given)
  i	-0.75
#79 COc1ccc(C2CC(=O)C3=C(C2)Nc2onc(C)c2C3c2ccsc2)cc1 (stereo not given)
  i	0.35
#80 CC(C)Cc1cc(-c2nn3c(-c4ccc(Br)cc4)nnc3s2)n[nH]1
  i	-0.5
#81 CC1(C(=O)NC2CCCCC2)Cn2c(nc3ccccc32)C(=O)N1CC1CCCO1 (stereo not given)
  i	0.38
#82 CCc1noc(-c2cccn2CC)n1
  i	0.77
#83 COc1ccc(NC(=O)CCc2nc3c(C)nn(-c4ccc(C)cc4)c3n(C)c2=O)cc1OC
  i	1.13
#84 CC1Cc2cc(S(=O)(=O)N3CCN(c4ccc(Cl)cc4)CC3)ccc2N1C(=O)C1CC1 (stereo not given)
  i	-0.7
#85 CC(C)C(=O)NCC(c1ccc(N(C)C)cc1)N(C)C (stereo not given)
  i	-0.51
#86 Cc1ccccc1NC(=O)C1CCCN(C(=O)C2Sc3ccccc3NC2=O)C1 (stereo not given)
  i	0.06
#87 CC1(C)C(=O)NCCN1C(=O)NC1CCCC1
  i	-0.1
#88 CCOc1cc(-c2ccc(F)cc2)nc2ccc(C(=O)N3CCN(c4ccccn4)CC3)cc12
  i	-0.27
#89 CC(C)(C)NC(=O)CN1C(=O)C(C)(C)c2ccccc21
  i	-1.06
#90 CCCCNC(=O)CN1C(=O)CC(C)Sc2ccc(S(=O)(=O)N3CCC(C)CC3)cc21 (stereo not given)
  i	-0.94
#91 CCOc1ccccc1NC(=O)N(C)CCc1noc(COc2ccc(Cl)cc2)n1
  i	-0.1
#92 CC(C)C(=O)N1CC(C)(C)c2cc(S(=O)(=O)Nc3ccc(S(N)(=O)=O)cc3)ccc21
  i	0.01
#93 O=S(=O)(NCc1cccn1Cc1ccccc1F)c1ccc(F)c(Cl)c1
  i	0.75
#94 CCCCNC(=O)C1CCN(c2ncccc2-c2nc(-c3cccc(C)c3)no2)CC1
  i	0.52
#95 CCCNc1nc(Nc2ccccc2)c2cnn(C)c2n1
  i	0.39
#96 O=C(NCc1cccnc1)c1ccc(Cn2c(SCc3ccc(Cl)cc3)nc3ccncc32)cc1
  i	-0.15
#97 CN(C)N=Nc1nc[nH]c1C(N)=O
  i	-0.18
#98 CN(C)C(=O)CN1c2ccc(F)cc2-c2ccccc2S1(=O)=O
  i	-1.35
#99 CCn1nc(-n2cnnc2)c(NS(=O)(=O)c2ccc(Br)s2)c1C
  i	-0.11
#100 O=C(CCS(=O)(=O)c1ccccc1)Nc1nc(-c2ccncc2)cs1
  i	-0.32
#101 O=S(=O)(Nc1ccc2c(c1)OCO2)c1ccc2nncn2c1
  i	-0.88
#102 C#CCn1c(-c2nnc(CC)o2)cc2ccccc21
  i	0.63
#103 CCOc1ccccc1NC(=O)Nc1ccc(-c2nc3ccccc3s2)c(Cl)c1
  i	0.51
#104 CCC(C)NC(=O)CCCn1c(=O)c2cccn2c2ccc(F)cc21 (stereo not given)
  i	-0.26
#105 CCn1c(=O)c(N2CCC(C(=O)NCC3CCCO3)CC2)c(C)n(-c2ccccc2)c1=O (stereo not given)
  i	-0.63
#106 CNc1cn[nH]c(=O)c1Cl
  i	-0.77
#107 C=CCN(CC=C)c1cc(C)nc2nc(-c3cccnc3)nn12
  i	-0.37
#108 COc1ccc(-c2cc(C)no2)cc1S(=O)(=O)CCC(=O)NC1CCN(Cc2ccccc2)CC1
  i	-0.3
#109 O=S(=O)(c1ccc(-c2cnc(C3CC3)o2)s1)N1CCN(c2ccccc2)CC1
  i	-0.03
#110 Cn1cc(C(=O)NC2CCCC2)c(S(=O)(=O)N2CCSCC2)n1
  i	0.57
#111 COc1ccc(NC(=O)Nc2nnc(SCC(=O)NC3CCCCC3)s2)cc1
  i	-0.44
#112 COc1ccc(Nc2cc(C(=O)NCCc3ccc(Cl)cc3)c3ccccc3n2)cc1OC
  i	-0.26
#113 CCN1CCN(C(=O)Cn2cnc3oc(C)c(C)c3c2=O)CC1
  i	-0.61
#114 Cc1nn(-c2ccccc2)c2sc(-c3noc(-c4ccccn4)n3)cc12
  i	-0.83
#115 C=CCNC(N)=S
  i	0.75&-0.27
